High-throughput results (PubChem BioAssay)
Mtb H37Rv: M. tuberculosis H37Rv growth inhibitors, H37Rv strain (AID 1626). 220,000 tested, 0.95% active. inhibition, % at 10 µM; hits with a dose series show IC50 in µM. M. tuberculosis H37Rv growth inhibition; higher % means a stronger effect;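 active means confirmed in a dose series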;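 further: bacteria incubated seven days before Alamar blue readout; 0% = bacteria only wells and 100% = bacteria with antibiotic wells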
Mtb betalactam: beta-lactam sensitization of Mtb H37Rv | inhibition, % at 25 µM | 330,000 tested, 0.27% active | M. tuberculosis H37Rv growth with meropenem, percent inhibition; hits of this screen are not shown here | AID 434955;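 active means about 74% or more and at least 40 points above the plate without the antibiotic, then above 30% in a dose series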;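 further: growth measured after seven days incubation then overnight dye step; 0% = bacteria only wells and 100% = bacteria with antibiotic; twin plates without the antibiotic show which effects depend on it; some results filed as inactive read as strong as hits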
RecA splice inh: inhibitors of M. tuberculosis RecA intein splicing; P9WHJ3; cell-free RecA intein splicing, fluorescence; inhibition, %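 (about 9 µM by stock and volumes)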; 290,000 tested, 0.75% active; in the data active means inhibition above about 30%;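 further: 0% = vehicle wells and 100% = reference inhibitor control wells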
Target sequence (P9WHJ3 whole entry, looked up, canonical isoform): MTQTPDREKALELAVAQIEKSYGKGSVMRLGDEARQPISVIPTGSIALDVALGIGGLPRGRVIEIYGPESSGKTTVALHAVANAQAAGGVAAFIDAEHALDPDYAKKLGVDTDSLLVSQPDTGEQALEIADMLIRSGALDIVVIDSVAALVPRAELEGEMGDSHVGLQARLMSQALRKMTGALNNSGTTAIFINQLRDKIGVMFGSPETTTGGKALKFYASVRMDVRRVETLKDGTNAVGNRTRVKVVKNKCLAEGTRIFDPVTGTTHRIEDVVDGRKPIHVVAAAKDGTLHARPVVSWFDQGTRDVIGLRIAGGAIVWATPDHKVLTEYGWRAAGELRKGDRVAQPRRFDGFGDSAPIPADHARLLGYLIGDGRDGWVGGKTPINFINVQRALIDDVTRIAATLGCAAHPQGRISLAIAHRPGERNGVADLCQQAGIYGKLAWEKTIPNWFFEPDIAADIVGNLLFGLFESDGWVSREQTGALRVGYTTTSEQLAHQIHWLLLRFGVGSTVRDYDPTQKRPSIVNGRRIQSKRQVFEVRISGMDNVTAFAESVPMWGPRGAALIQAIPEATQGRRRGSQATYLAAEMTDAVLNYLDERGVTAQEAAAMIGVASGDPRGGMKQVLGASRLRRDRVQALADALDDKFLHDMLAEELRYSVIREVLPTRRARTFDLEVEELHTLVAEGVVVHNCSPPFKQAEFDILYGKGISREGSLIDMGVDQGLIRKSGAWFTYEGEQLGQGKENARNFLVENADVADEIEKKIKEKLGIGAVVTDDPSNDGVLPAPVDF
YopH PTP inh: blocks Yersinia enterocolitica YopH tyrosine phosphatase | fluorescence Ex485/Em525 | inhibition, %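 (about 10 µM by stock and volumes)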 | 140,000 tested, 0.16% active | AID 898;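 active means inhibition of 50% or more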;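 further: controls were vehicle for no effect and minimum signal wells for full effect; inactives centre near -20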
Arbovirus anti: blocks arbovirus infection; 200,000 tested, 0.37% active; arbovirus infection cell-based antiviral screen; inhibition, % at 10 µM;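 active means inhibition from about 30%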;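 further: bluetongue infection of BSR cells; cell survival read as ATP light after 72 h; 0% = infected wells without compound and 100% = uninfected wells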
Arbovirus anti repeat: second read-out of Arbovirus anti, no call of its own (marks repeat the call); inhibition, %; measured here: 10K subset replicate screen; many hits read low in the repeat;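 first of two repeat runs on a subset; 0% = infected and 100% = uninfected wells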
* marks the source's active call; other numbers are inactive results; · = not tested or not shown.

SMILES	Mtb H37Rv	Mtb betalactam	RecA splice inh	YopH PTP inh	Arbovirus anti	others
COc1cccc(CC(NC(C)=O)C(=O)NC2CCN(S(=O)(=O)c3ccc(C)cc3)CC2)c1OC (stereo unspecified)	-15%	0	-4.3	·	11
O=C1SC(SCc2ccccc2)=N/C1=C\c1ccc(C(=O)O)cc1	-6%	3	12	·	-5
Fc1cccc(CCN2C(=S)NC[C@@H]2CC2CCCCC2)c1	4%	2	2.1	·	·
O=C(Nc1ccc(N2CCN(C(=O)c3ccco3)CC2)cc1)c1ccc(Br)cc1	·	8	0.2	·	·
CCCCS(=O)(=O)CC(COc1ccccc1)OC(=O)c1ccccc1 (stereo unspecified)	12%	8	-1.6	-25	-2
CCC1CCCCN1CCNC(=O)c1[nH]c(C)c(C(C)=O)c1C (stereo unspecified)	2%	-8	0.7	-28	-5
CCOc1ccc(S(=O)(=O)N(C)CC(=O)NCc2ccccn2)cc1	·	-2	-2.2	·	·
COc1ccc2cc(C(=O)NCC3CCCO3)[nH]c2c1 (stereo unspecified)	·	-4	-0.2	·	·
CN1CCN(S(=O)(=O)c2cccc(C(=O)NCCOc3ccccc3)c2)CC1	·	-9	-0.1	·	·
CC(C)(C)NC(=O)C1CCC(CNS(=O)(=O)c2cccc3nsnc23)CC1 (stereo unspecified)	·	2	-6.4	·	·
O=C(NCCCO)NC(=S)c1cccc2ccccc12	0%	-2	0.1	·	0
c1ccc(-c2nc(N3CCCC3)nc3ccccc23)cc1	4%	44	-11	·	-5
CCOC(=O)c1c(C)[nH]c(C=O)c1Cc1cccc(Cl)c1	4%	2	4.9	-30	-17
COc1cc(/C=N/N2C(C)CCCC2C)cc(OC)c1O (stereo unspecified)	·	-4	-4.2	·	·
COc1ccccc1C1/C(=C(\O)c2ccc3c(c2)OCCO3)C(=O)C(=O)N1CCCn1ccnc1 (stereo unspecified)	·	-2	7.1	·	·
CCCc1nc2ccc(NC(=O)c3cccs3)cc2c(=O)n1Cc1ccc(Cl)cc1	13%	-7	-1.5	-31	5
CCCC(=O)Nc1ccc(Cl)c(NC(=O)c2ccco2)c1	-5%	6	0.3	-30	-8
O=C1CSC(c2cn(-c3ccccc3)nc2-c2cc3ccccc3oc2=O)N1Cc1cccnc1 (stereo unspecified)	-1%	7	3.8	-31	-8
COc1cccc(CN2CCN(c3ncccn3)CC2)c1	-4%	7	-2.0	-34	0
COc1ccc(NC(=O)c2cc3ccccc3cc2OC)cc1OC	·	5	-0.8	·	·
CCCNC(=O)c1ccc(C2SCC(=O)N2Cc2ccccc2)cc1 (stereo unspecified)	-7%	-5	1.9	-19	1
Cc1ccc(N2C(=O)CSC2c2c(F)cccc2Cl)cc1 (stereo unspecified)	8%	9	3.7	-9	-8
COc1cc2c(cc1OC)CN(C(=O)CSc1nc3[nH]ncc3c(=O)n1-c1ccccc1)CC2	6%	1	4.5	-18	12	Arbovirus anti repeat=5
COCCN(CC1CCCN(C2Cc3ccccc3C2)C1)C(=O)c1ccc(C(C)=O)cc1 (stereo unspecified)	·	0	6.2	·	·
O=CN1CCCN(Cc2nc(Cc3ccccc3F)no2)CC1	1%	-9	0.1	·	2
Oc1ccc(C[C@H]2CNCCN2CCc2cccc3ccccc23)cc1	·	-6	-1.3	·	·
COc1ccc(C(=O)Cc2cc(OC)c(OC)cc2C(=O)c2ccccc2F)cc1OC	1%	-6	-2.6	·	8
CS(=O)(=O)c1ccccc1-c1nnc(NC(=O)COc2ccc(Cl)cc2)o1	·	-9	-1.4	·	·
CN1C(=O)c2ccc(C(=O)Nc3ccc(Br)cn3)cc2C1=O	·	6	0.3	·	·
Cc1sc2nc(-c3ccc(Br)cc3)oc(=O)c2c1C	·	8	-7.3	·	·
Cc1nn(C)c(Oc2cccc(C(F)(F)F)c2)c1C=O	6%	4	-7.0	·	-1
O=C(O)CN1C(=O)c2ccc(Oc3cccc4c3C(=O)N(CC(=O)O)C4=O)cc2C1=O	5%	-2	1.4	-31	12
Cc1ccc(S(=O)(=O)N2CCCCC2)cc1NC(=O)COC(=O)Cc1c(F)cccc1Cl	0%	6	6.5	-19	2
COc1ccc2[nH]c(C)c(C(=O)CN3CCN(C(=O)c4ccco4)CC3)c2c1	2%	-11	-1.2	-8	6
Cn1c(=O)cc(Nc2ccccc2)c2c(=O)n(-c3ccccc3)c(=O)n(-c3ccccc3)c21	6%	1	3.7	·	·
Cc1noc(NS(=O)(=O)c2ccc(NC(=O)CC(C)C)cc2)c1C	·	5	-0.4	·	·
COc1ccc(-c2ccc(S(=O)(=O)N3CCCC3)cc2)cc1	1%	-2	-0.1	·	6
CCOC(=O)COc1cccc2c(=O)n(CC(=O)NCc3ccccc3)ccc12	-16%	-3	-0.9	·	·
NC(=O)C1CCN(C(=O)c2cc3ccccn3n2)CC1	7%	-7	-0.3	-52	3	Arbovirus anti repeat=2
CS(=O)(=O)N1CCC(C(=O)Nc2ccccc2Br)CC1	·	4	-1.6	·	·
CC(=O)/C(=N\Nc1cccc(Cl)c1)Sc1nnc(-c2ccccc2)n1-c1ccccc1	16%	9	0.9	-4	4
O=C(C(Cc1ccccc1)N1C(=O)c2ccccc2C1=O)N1c2ccccc2CCc2ccccc21 (stereo unspecified)	39%	9	5.3	-25	-2
O=C(Nc1cc(Cl)ccc1O)c1cc2n(n1)C(C(F)(F)F)CC(c1ccc3c(c1)OCO3)N2 (stereo unspecified)	93%	-1	11	9	-7
CC1(O)C(=O)C=C2C=C(c3ccsc3)OC=C2C1=O (stereo unspecified)	-9%	-3	12	·	·
Cc1ccc(C(=O)c2cc3c(cc2N)OCCO3)cc1	22%	0	0.4	-30	-2	Arbovirus anti repeat=-6
CN1CCN(S(=O)(=O)c2ccc3c(c2)NC(=O)CS3)CC1	·	-4	-5.9	·	·
COc1cc(/C=N/NC(=O)CNC(=O)c2ccccc2)ccc1OC(=O)c1cccs1	-7%	1	19	-27	4
CCCC(C)C(=O)Nc1nnc(CCc2ccccc2)s1 (stereo unspecified)	·	14	-2.0	·	·
COc1ccc(CCNC(=O)c2cc(-c3ccccn3)nc3c(Cl)cccc23)cc1OC	11%	-6	-0.1	·	-5
CCN1C(=O)[C@H]2[C@@H](c3ccc(C)cc3)N3C(=O)N(c4ccccc4)C(=O)[C@@]3(Cc3ccccc3)[C@H]2C1=O	·	-3	0.3	·	·
CN(C)c1ccc(CNc2nc3ccccc3s2)cc1	·	0	0.0	·	·
Cc1nn(-c2ccccc2)c(C)c1C(=O)OCC(=O)c1c(N)n(CC(C)C)c(=O)n(C)c1=O	-4%	3	2.7	-24	-10
CCCCCOc1ccc(C)cc1CN(CCCl)CCCl	6%	0	18	·	·
O=C(NCCCc1ccccc1)c1ccc(F)cc1	·	2	-0.7	·	·
Cc1ccc(-n2ncc3c(=O)n(CC(=O)Nc4cccc(Cl)c4)cnc32)cc1C	-1%	-2	0.7	-26	-2
CCOc1ccccc1/C=N/NC(=O)c1nnn(-c2nonc2N)c1CN1CCCCCC1	·	-1	-0.7	·	·
COc1cccc(CSc2nnc(-c3ccc(F)cc3)o2)c1	21%	-3	5.8	-49	-1
COc1cc(OC)c2c(-c3ccccc3)cc(=O)oc2c1C(CC(=O)N1CCOCC1)c1ccc(N(C)C)cc1 (stereo unspecified)	-7%	-3	0.8	·	·
Cc1ccc(-n2nc3c(=S)[nH]nc(C)c3c2C)cc1	·	-12	-1.4	-33	4
Cc1cccc(CCNC(=O)CC2C(=O)NCCN2Cc2ccc(F)c(F)c2)n1 (stereo unspecified)	-5%	-5	0.3	·	14

The results go on.
SMILES	Mtb H37Rv	Mtb betalactam	RecA splice inh	YopH PTP inh	Arbovirus anti	others
CCOc1ccc(CNC(=O)CCS(=O)(=O)Cc2cccc(Cl)c2)cc1OC	5%	-10	-2.8	·	0
CNC(=S)N1CCn2cccc2C1c1ccc(F)cc1 (stereo unspecified)	-5%	-7	1.2	·	5
Cc1cccc2cc(C(c3nnnn3CC3CCCO3)N3CCCC4(CCCCC4)C3)c(=O)[nH]c12 (stereo unspecified)	5%	·	·	-21	5
Cc1nc(SC(C)C(=O)NC2CCCCC2C)c2c(C)c(C)sc2n1 (stereo unspecified)	·	-3	4.1	·	·
COc1ccc(Cl)cc1NC(=O)CN1CCN(S(=O)(=O)c2ccc(F)cc2)CC1	·	-9	4.1	·	·
O=C1c2ccsc2SCCN1Cc1cccc(Cl)c1	16%	-2	3.2	-14	2
CCN(CC)CCCNC(=S)N(CCO)Cc1cc2cc3c(cc2[nH]c1=O)OCCO3	·	8	-1.5	·	·
Cc1ccc(S(=O)(=O)Nc2ccc3c(c2)C(=O)NC3=O)cc1[N+](=O)[O-]	·	3	-6.8	·	·
Cc1nc2sc3c(c2c2nnc(SCC(=O)NCc4ccco4)n12)CCCC3	8%	·	-0.4	18	-13
CCCCC(=O)Nc1nnc(SCC(=O)N2CCN(c3ccccc3OC)CC2)s1	-2%	-4	-2.5	-22	4
COc1c(Cl)cc(C(=O)Nc2ccccc2-c2ccccc2)cc1Cl	·	4	7.6	-14	0
O=C(NCc1ccc(Cl)cc1)c1ccc(-n2cccn2)nc1	2%	-2	-6.1	·	10
COC(=O)CCC(=O)OC1(C)C(=O)C=C2C=C(C3CC3)N(CCCOC(C)C)C=C2C1=O (stereo unspecified)	-3%	-10	7.7	·	·
Cc1ccccc1-c1cc(C(=O)n2cccn2)c2cc(Cl)ccc2n1	-10%	22	3.2	-19	4
CC(=O)c1cccc(N(C(=O)Cn2nnc3ccccc32)C(C(=O)NCc2ccccc2)c2ccccn2)c1 (stereo unspecified)	6%	-2	0.2	-19	-7
COc1ccc(C(=O)NC(=S)Nc2ccc(S(=O)(=O)Nc3cc(OC)nc(OC)n3)cc2)cc1	·	4	3.0	·	·
COc1ccc2[nH]c(=O)c(C(c3nnnn3CC3CCCO3)N3CCc4ccccc4C3)cc2c1 (stereo unspecified)	-9%	-5	5.4	7	1
CC(C)C(NC(=O)C1CCCCC1)C(=O)NCc1ccccn1 (stereo unspecified)	-13%	-1	6.0	-50	1
COc1ccccc1/C=C1\SC(=S)N(CC(=O)Nc2nnc(C)s2)C1=O	4%	-4	-5.3	·	-24
Cc1ccc(S(=O)(=O)/N=C(/NC(=S)Nc2c(C)n(C)n(-c3ccccc3)c2=O)c2ccccc2)cc1	-11%	-7	-3.3	·	·
Cc1ccc(-n2nc3c(=O)n(CCCC(=O)N4CCC(C(N)=O)CC4)nc(C)c3c2C)cc1	·	-9	3.3	·	·
Cc1cc(C)nc(NNS(=O)(=O)c2ccc(F)c(Cl)c2)n1	·	-1	5.1	·	·

Part of the list above in order of number of heavy atoms, descending.
SMILES	Mtb H37Rv	Mtb betalactam	RecA splice inh	YopH PTP inh	Arbovirus anti	others
COc1ccc(C(=O)NC(=S)Nc2ccc(S(=O)(=O)Nc3cc(OC)nc(OC)n3)cc2)cc1	·	4	3.0	·	·
Cc1ccc(-n2nc3c(=O)n(CCCC(=O)N4CCC(C(N)=O)CC4)nc(C)c3c2C)cc1	·	-9	3.3	·	·
Cc1cc(C)nc(NNS(=O)(=O)c2ccc(F)c(Cl)c2)n1	·	-1	5.1	·	·

Entries listed so far that have fluorine:
SMILES	Mtb H37Rv	Mtb betalactam	RecA splice inh	YopH PTP inh	Arbovirus anti	others
Fc1cccc(CCN2C(=S)NC[C@@H]2CC2CCCCC2)c1	4%	2	2.1	·	·
Cc1ccc(N2C(=O)CSC2c2c(F)cccc2Cl)cc1 (stereo unspecified)	8%	9	3.7	-9	-8
O=CN1CCCN(Cc2nc(Cc3ccccc3F)no2)CC1	1%	-9	0.1	·	2
COc1ccc(C(=O)Cc2cc(OC)c(OC)cc2C(=O)c2ccccc2F)cc1OC	1%	-6	-2.6	·	8
Cc1nn(C)c(Oc2cccc(C(F)(F)F)c2)c1C=O	6%	4	-7.0	·	-1
Cc1ccc(S(=O)(=O)N2CCCCC2)cc1NC(=O)COC(=O)Cc1c(F)cccc1Cl	0%	6	6.5	-19	2
O=C(Nc1cc(Cl)ccc1O)c1cc2n(n1)C(C(F)(F)F)CC(c1ccc3c(c1)OCO3)N2 (stereo unspecified)	93%	-1	11	9	-7
O=C(NCCCc1ccccc1)c1ccc(F)cc1	·	2	-0.7	·	·
COc1cccc(CSc2nnc(-c3ccc(F)cc3)o2)c1	21%	-3	5.8	-49	-1
Cc1cccc(CCNC(=O)CC2C(=O)NCCN2Cc2ccc(F)c(F)c2)n1 (stereo unspecified)	-5%	-5	0.3	·	14
CNC(=S)N1CCn2cccc2C1c1ccc(F)cc1 (stereo unspecified)	-5%	-7	1.2	·	5
COc1ccc(Cl)cc1NC(=O)CN1CCN(S(=O)(=O)c2ccc(F)cc2)CC1	·	-9	4.1	·	·
Cc1cc(C)nc(NNS(=O)(=O)c2ccc(F)c(Cl)c2)n1	·	-1	5.1	·	·

These rows are one share of the data; rates above refer to the full screens.
